VDR inhibitor – blocks the human vitamin D receptor; P11473; VDR-SRC2-3 peptide fluorescence polarization, 2 h; Potency, µM, without a hit: max response, negative = inhibition, actives largely listed as inhibitors; 400,000 tested, 0.93% active; AID 504847; active means well fitted inhibition curve with a large enough effect; inconclusive means small, poorly fitted or top-dose-only effect, or another doubt; inactive means no such curve, though single readings can be large or run the other way; further: series mostly up to about 120 µM
Target sequence (P11473 whole entry, looked up): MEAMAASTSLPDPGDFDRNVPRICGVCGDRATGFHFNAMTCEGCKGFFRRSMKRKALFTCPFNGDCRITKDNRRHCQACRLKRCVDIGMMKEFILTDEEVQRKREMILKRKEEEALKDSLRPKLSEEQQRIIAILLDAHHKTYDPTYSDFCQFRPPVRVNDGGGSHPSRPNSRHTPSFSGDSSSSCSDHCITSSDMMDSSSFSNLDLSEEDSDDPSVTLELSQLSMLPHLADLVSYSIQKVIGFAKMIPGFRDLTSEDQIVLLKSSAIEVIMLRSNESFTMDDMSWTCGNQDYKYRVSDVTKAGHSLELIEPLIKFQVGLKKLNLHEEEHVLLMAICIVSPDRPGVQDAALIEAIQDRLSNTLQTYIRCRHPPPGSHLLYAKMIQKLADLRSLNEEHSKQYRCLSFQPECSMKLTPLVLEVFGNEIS
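Reagent solutions, kept cold and dark, are dispensed first; compounds are then pinned in at 23 nl, plates briefly spun, and incubated 2 h at ambient temperature. Inhibition of VDR–SRC2-3 peptide binding is read by fluorescence polarization.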
* = called active by the depositor; ? = inconclusive. On the % scale 0 is the no-effect control and ±100 the full control effect; potency means the concentration at half of the fitted maximal effect. An excerpt; rates above refer to the full screens.

| VDR inhibitor | structure |
| --- | --- |
| -5.2% | S=c1[nH]c(-c2ccccc2)cn1/N=C/c1cccc2ccccc12 |
| 11.9% | O=C(c1ccccc1)N1CCN(CC#CC2(O)CCCCC2)CC1 |
| 3.6% | O=C(c1cccs1)N1CCN(c2cc(Cl)ccc2Cl)CC1 |
| -23.2% | Cc1ccc(C(=O)N2CCN(C(=O)c3ccccc3)C2c2ccc(N(C)C)cc2)cc1 (stereo unspecified) |
| -0.4% | CC1=C(C(=O)OCC2CCCCC2)C(c2cccc(F)c2F)CC(=O)N1 (stereo unspecified) |
| -2.4% | O=C(Nc1cccc(Cl)c1Cl)c1cc2nc(-c3ccc(Cl)cc3)cc(C(F)(F)F)n2n1 |
| -9.0% | Cc1cccc(OCC(=O)Nc2ccncc2)c1 |
| 5.5% | COC(=O)c1c(NC(=O)Cc2cccs2)sc(C(=O)NC2CCCCC2)c1C |
| 12.8% | O=C(CSc1nc2ccccc2[nH]1)N1c2ccccc2Sc2ccccc21 |
| -2.9% | Cc1ccc(N(C)C(=O)Cn2ncc3c([nH]c4ccccc43)c2=O)cc1C |
| -9.2% | COc1cc([N+](=O)[O-])ccc1NC(=O)CCS(=O)(=O)c1ccc2c(c1)n(C)c(=O)c(=O)n2C |
| 7.2% | Cc1c(C(=O)N2CCCC2)oc2c1-c1nn(CC(=O)NCc3ccccc3F)cc1CC2 |
| -13.6% | O=C(/C=C/c1cccs1)N1CCOCC1 |
| -20.6% | COc1ccc(NC(=O)c2c(NCc3sccc3C)sc3c2CCCCC3)c(OC)c1 |
| 3.1% | CCc1ccc(S(=O)(=O)NCc2cccn2Cc2cccc(C)c2)cc1 |
| -3.1% | CC(Cc1ccccc1)C(=O)NCc1nc2ccccc2s1 (stereo unspecified) |
| 20µM* | COc1ccc(S(=O)(=O)Nc2cc(Sc3ncn[nH]3)c(O)c3ccccc23)cc1 |
| ? | Cc1ccnc(SCc2cc(=O)c(OC(=O)c3ccc(S(=O)(=O)N4CCCC4)cc3)co2)n1 |
| -12.2% | O=S(=O)(c1ccc(SCc2ccc(Br)cc2)nc1)N1CCCCC1 |
| -6.0% | COc1ccc(C2CC(c3c(O)cc(C)oc3=O)=NCCS2)c(OC)c1 (stereo unspecified) |
| -17.2% | CCN1CCN(CCNC(=O)CS(=O)(=O)Cc2nc(-c3ccc(C)cc3)oc2C)CC1 |
| 7.3% | CCN(CC)C(=O)c1sc(NC(=O)c2ccc3c(c2)OCO3)c(C(N)=O)c1C |
| 2.7% | Cc1ccccc1NC(=O)C(C)O/N=C/c1cccc([N+](=O)[O-])c1 (stereo unspecified) |
| -19.0% | Fc1ccc(NC(=S)N2CCN(c3ncccn3)CC2)cc1 |
| -9.1% | CN1C(=O)N(CC(=O)Nc2ccc(C(F)(F)F)cc2)C(=O)C12CCCCC2 |
| 8.0% | CN(C(=O)COC(=O)C1CCN(S(=O)(=O)c2ccc(Cl)cc2)CC1)C1CCS(=O)(=O)C1 (stereo unspecified) |
| 7.2% | COc1cc(/C=C(\C#N)c2nc3ccccc3[nH]2)ccc1O |
| -15.5% | Cc1cccc(C)c1NC(=O)COC(=O)C1CC(=O)N(Cc2ccccc2)C1 (stereo unspecified) |
| -0.6% | CCOC(=O)C1C(=O)NC(N2CCCCC2)=NC1C(C)C (stereo unspecified) |
| -3.9% | Cc1oc(-c2ccc(Cl)cc2)nc1CS(=O)CC(=O)NCCCN1CCN(Cc2ccccc2)CC1 (stereo unspecified) |

Among those listed so far, these contain a CF3 group.
| VDR inhibitor | structure |
| --- | --- |
| -2.4% | O=C(Nc1cccc(Cl)c1Cl)c1cc2nc(-c3ccc(Cl)cc3)cc(C(F)(F)F)n2n1 |
| -9.1% | CN1C(=O)N(CC(=O)Nc2ccc(C(F)(F)F)cc2)C(=O)C12CCCCC2 |

The list continues:
| VDR inhibitor | structure |
| --- | --- |
| -24.1% | Nc1ccc(Cc2ccccn2)cc1 |
| 16.3% | COc1cc(N)c(Cl)cc1C(=O)OC(C)C(=O)Nc1cccc(S(=O)(=O)N2CCOCC2)c1 (stereo unspecified) |
| -19.0% | CCC(C)(C)NC(=O)C(c1cccc(OC)c1)N(C(=O)CNC(=O)c1cccs1)c1cccnc1 (stereo unspecified) |
| 13.1% | O=C1/C(=C/c2cccs2)CCC/C1=C\c1cccs1 |
| 9.0% | COc1ccc2nc(NC(=O)CN3C(=O)NC4(CCCCC4)C3=O)sc2c1 |
| 12.3% | O=C(c1ccco1)N1CCC(c2nc(-c3ccc(F)cc3)no2)CC1 |
| -7.4% | COc1cccc(C2C(C(=O)c3cccs3)=C(O)C(=O)N2CCN2CCOCC2)c1OC (stereo unspecified) |
| -1.6% | CC1=Nc2ccc(Br)cc2C(c2ccccc2)N1CC(=O)O (stereo unspecified) |
| 22.3% | COc1ccccc1Nc1ncnc2c1nc1n2CCCC1 |
| 2.3% | CCOc1ccc(N(CC(=O)Nc2cccc(OC)c2)S(C)(=O)=O)cc1 |
| 5.2% | C/C(=N/NC(=O)CCC(=O)Nc1cccc(Cl)c1)c1ccc(C)cc1 |
| 3.3% | COc1ccc(-c2nc3sc(CCNC(=O)Cc4ccc(Cl)cc4)c(C)n3n2)cc1 |
| -15.2% | Cc1nc(Sc2ccccc2)c(C#N)c(C)c1[N+](=O)[O-] |
| 4.7% | CNC(=O)c1cc2cc(OC)ccc2oc1=N |
| 6.0% | CNC(=O)c1cc2cccc(OC)c2oc1=O |
| -18.4% | Cn1nc(C(=O)N2CCN(S(=O)(=O)c3ccc(Cl)cc3)CC2)c2ccccc2c1=O |
| -7.5% | O=C(COc1ccc(Br)cc1)N1CCN(c2ccc([N+](=O)[O-])c(N3CCCCC3)c2)CC1 |
| 12.8% | COC(=O)[C@]1(C)N[C@H](CN(C)C(=O)NC(C)C)[C@@H]2C(=O)N(Cc3ccccc3)C(=O)[C@@H]21 |
| -17.7% | CC(C)(C)c1cc(NC(=O)CSc2nncs2)n(-c2ccccc2)n1 |
| 3.1% | COC(=O)c1n[nH]n(-c2ccc(F)c(Cl)c2)c1=O |
| -10.6% | COC(=O)CSc1nnc(-c2ccoc2C)n1-c1ccc(C)cc1 |
| -17.2% | COc1ccc(-n2c(=O)c(-c3ccccc3)nc3cnc(N4CCNCC4)nc32)cc1 |
| -2.8% | CCOC(=O)N1CCc2c(sc3c2c(=O)n(Cc2ccccc2)c(=O)n3CC(=O)NCCOC)C1 |
| -3.5% | CN(Cc1ccon1)Cc1cn(C)nc1-c1ccc(Oc2ccccc2)cc1 |
| 7.2% | COC(=O)c1cn(NC(=O)C2COc3ccccc3O2)c(=O)c2ccccc12 (stereo unspecified) |
| -5.1% | CCC(CO)NS(=O)(=O)c1cc(-c2nn(C)c(=O)c3ccccc23)ccc1C (stereo unspecified) |
| -4.0% | FC(F)(F)c1ccccc1-c1nc(NCCN2CCOCC2)c2ccccc2n1 |
| -7.7% | CCOc1ccccc1NC(=O)c1nc(SC(C)C)ncc1Cl |
| -7.6% | Cn1c(N)c(C(=O)CSc2nnc(C3CC3)n2-c2ccccc2)c(=O)n(C)c1=O |
| -2.0% | CCOc1ccccc1NC(=O)CN(Cc1ccccc1)S(C)(=O)=O |

Going on with the list:
| VDR inhibitor | structure |
| --- | --- |
| -5.2% | Cc1ccc(NC(=O)CNC(=O)c2cccs2)c(O)c1 |
| -9.4% | CC1CC(C)CN(S(=O)(=O)c2ccc3c(c2)CCN3C(=O)C2CC2)C1 (stereo unspecified) |
| -9.9% | CCCC(=O)NC(=S)Nc1ccc(N2CCOCC2)c(Cl)c1 |
| -26.1% | O=C(O)C1=C[C@@H](c2ccc(C(F)(F)F)cc2)C[C@@H](OCc2ccc(CO)cc2)O1 |
| ? | Cc1cccc(NC(=O)CSc2nnc(-c3ccco3)c(-c3ccco3)n2)c1C |
| ? | O=C(CSc1nc2ccccc2[nH]1)c1ccc2c(c1)OCO2 |
| -13.3% | C[C@@H](C(=O)NCC1CC1)[C@@H]1C[C@@]1(C)[C@@H](NC(=O)OCc1ccccc1)c1ccccc1 |
| 1.2% | CCOc1cccc(OCCOCCOc2ccccc2C(C)=O)c1 |
| -8.5% | COc1ccc(C(=O)NCCS(=O)(=O)N2CCN(Cc3ccccc3)CC2)cc1 |
| -1.8% | CC1(C)c2cc(O)ccc2OC1N1CCOCC1 (stereo unspecified) |
| -26.0% | Cc1ccc(S(=O)(=O)N(C)C)cc1NC(=O)c1ccc(OC(F)(F)F)cc1 |
| 6.2% | COc1ccc(C(C)(C)C)cc1NC(=O)COC(=O)c1nc2nccc(C)n2n1 |
| -20.6% | CC(Sc1nc(NCc2ccccc2)nc(N2CCOCC2)n1)C(=O)Nc1ccccc1 (stereo unspecified) |
| -3.9% | CC(=O)c1ccc(S(=O)(=O)N2CCC(NC(=O)Nc3cccc(F)c3)CC2)cc1 |
| 9.3% | CCCS(=O)(=O)N1CCC(C(=O)NCCOC)CC1 |
| -2.8% | COc1ccc2cc3cc(C(=O)NCc4ccc5c(c4)OCO5)oc3nc2c1 |
| 13.7% | O=C1NCCN1CCNS(=O)(=O)c1ccccc1[N+](=O)[O-] |
| 1.5% | O=C(Nc1ccccc1Cl)ON=C1c2ccccc2-c2ccccc21 |
| 16.7% | C=C(C)c1cccc(C(C)(C)NC(=O)NCc2ccncc2)c1 |
| -9.4% | CCCCOc1ccc(/C=N/NC(=O)c2nnn(-c3nonc3N)c2CN2CCCCCC2)cc1 |
| -0.3% | CC1(C)C(C=C(Cl)Cl)C1C(=O)N1CCN(c2ccccc2)CC1 (stereo unspecified) |
| -4.3% | N#CC1=C(N)Oc2n[nH]c(-c3ccc(F)cc3)c2C1c1ccncc1 (stereo unspecified) |
| -26.8% | COc1cc(/C=C(\C#N)C(=O)NC(C)C)cc(Cl)c1O |
| -7.2% | COc1cc2cc(C(c3nnnn3C(C)(C)C)N3CCc4ccccc43)c(=O)[nH]c2cc1OC (stereo unspecified) |
| -12.8% | C=CCOC(=O)C1=C(C)NC(SCC(=O)OCC)=C(C#N)C1c1ccc(C)cc1 (stereo unspecified) |
| -8.5% | CC(C)(C)C1CCc2c(sc(NC(=O)CSc3nnc(-c4ccccc4)o3)c2C#N)C1 (stereo unspecified) |
| 12.6µM* | O=C(/C=C/c1ccccc1)/C=C/c1ccccc1 |
| ? | COC(=O)/C=C\c1cc(O)ccc1O |
| 19.8% | CCCc1nnc(NC(=O)CCC(=O)N2CCN(CCOc3ccc(C)cc3)CC2)s1 |
| -14.3% | O=C(c1ccco1)N1CCN(C(=O)c2cn(-c3ccccc3)nc2-c2ccccc2)CC1 |

The list continues:
| VDR inhibitor | structure |
| --- | --- |
| 1.6% | COc1cccc(CN2CCN(S(=O)(=O)c3ccccc3)CC2)c1OC |
| -17.1% | FC(F)(F)c1ccc(C2[C@H]3CN(Cc4ccc(-c5ccccc5)cc4)[C@H](c4ccccc4)C34CC2(c2cccnc2)C4)cc1 (stereo partly specified) |
| -2.0% | Cc1cc(C(=O)COC(=O)C2=NNC(=O)CC2)c(C)n1-c1ccc(OC(F)F)cc1 |
| 6.2% | COc1cc(NC(=O)C2CC(=O)N(CCc3ccc(F)cc3)C2)cc(OC)c1OC (stereo unspecified) |
| -5.2% | CCn1c(SCC(=O)Nc2ccc3c(c2)n(C)c(=O)n3C)nnc1-c1ccncc1 |
| -21.0% | COc1cc2[nH]c(=O)n(CCCC(=O)N3CC=C(c4ccccc4)CC3)c(=O)c2cc1OC |
| -11.2% | CCn1nc(C)c([N+](=O)[O-])c1C(=O)NNC(=O)c1ccc(Cl)cc1 |
| -0.4% | COCCCn1c(SCc2cccc(Cl)c2)nc2c(sc3ccccc32)c1=O |
| -3.9% | O=C(Cc1ccsc1)Nc1ccc(Cl)cc1Cl |
| 6.7% | CC(=O)NC(CCS(C)(=O)=O)C(=O)Nc1c(F)cccc1F (stereo unspecified) |
| 7.8% | CCCc1cc(NCCCO)n2c(nc3ccccc32)c1C#N |
| 2.3% | COc1cccc(-c2nc(S(=O)(=O)c3ccccc3)c(N3CCC(C)CC3)o2)c1 |
| 8.3% | COC(=O)CNc1nc(Cl)nc(Nc2ccc(C)cc2)n1 |
| 0.6% | CC(C)(C)C(=O)COC(=O)c1ccc2c(c1)C(=O)N(Cc1ccco1)C2=O |
| 9.4% | Cc1cc(C(=O)OCC(=O)N2c3ccccc3CC2C)c(C)o1 (stereo unspecified) |
| -23.9% | COCN(C#N)c1nc(N(C)C)nc(N(C)C)n1 |
| 5.4% | Cc1nn2c(C)c(C(=O)NCCc3ccccc3)cnc2c1-c1ccccc1 |
| -4.7% | Cc1c(-c2ccccc2)nc(-c2ccccc2)[nH]c1=O |
| 8.6% | Cc1cccc(OCCOC(=O)CN2C(=O)NC3(CCCC3)C2=O)c1 |
| -21.5% | CN(C)CCCNC(=O)C[C@H]1C[C@H](C(=O)N2CCCCC2)[C@@]2(C)c3[nH]c4ccc(Cl)cc4c3CCN2C1=O |
| 4.9% | CCOC(=O)c1[nH]cnc1C(=O)Nc1ccccc1C |
| 24.5% | C/C(=N/O)c1ccccn1 |
| -9.0% | COc1ccc(-n2cc(C(=O)O)c(=O)cc2C)cc1 |
| 9.4% | CCOc1ccc(CN2C(=O)c3ccccc3C2C(=O)NCc2cccnc2)cc1 (stereo unspecified) |
| -2.5% | Cc1ccc(C)c(NC(=O)CN(C)S(=O)(=O)c2ccc3c(c2)CCC(=O)N3)c1 |
| 2.1% | N#CN=C(c1ccccc1)c1ccccc1 |
| 6.4% | Cc1ccc(C(=O)N2CCc3cc(CNS(=O)(=O)c4ccc(Cl)s4)ccc32)cc1 |
| -8.2% | CC(C)c1ccc(CNC(=O)C2CCCN2S(=O)(=O)c2ccccc2)cc1 (stereo unspecified) |
| 4.1% | O=C1Nc2ccccc2C(O)(C(=O)NCc2ccco2)N1c1ccc(Cl)c(Cl)c1 (stereo unspecified) |
| 3.5% | COc1ccc2c(c1)CCCC21NC(=O)NC1=O (stereo unspecified) |

3 of the compounds above, with each value named.
CC(=O)NC(CCS(C)(=O)=O)C(=O)Nc1c(F)cccc1F (stereo unspecified)
  VDR inhibitor: 6.7%
CCCc1cc(NCCCO)n2c(nc3ccccc32)c1C#N
  VDR inhibitor: 7.8%
COc1cccc(-c2nc(S(=O)(=O)c3ccccc3)c(N3CCC(C)CC3)o2)c1
  VDR inhibitor: 2.3%
